GLA inh pH 4.5: qHTS Assay for Inhibitors of Human alpha-Galactosidase at pH 4.5; activity change, negative = inhibition, % at 105 µM; Alpha-galactosidase A (Homo sapiens), P06280; AID 1467, 2008; 230,000 tested, under 10 active; purified enzyme, 4-MU-alpha-Gal fluorescence, pH 4.5; inconclusive = small, poorly fitted or top-dose-only inhibition, or a rising curve; inactive = flat fitted curve, though single readings scatter; no compound was filed as active;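 further: 0% = full activity with enzyme and -100% = basal without enzyme; dose as in the result columns while the protocol names 77 µM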
Target sequence (P06280 whole entry, looked up): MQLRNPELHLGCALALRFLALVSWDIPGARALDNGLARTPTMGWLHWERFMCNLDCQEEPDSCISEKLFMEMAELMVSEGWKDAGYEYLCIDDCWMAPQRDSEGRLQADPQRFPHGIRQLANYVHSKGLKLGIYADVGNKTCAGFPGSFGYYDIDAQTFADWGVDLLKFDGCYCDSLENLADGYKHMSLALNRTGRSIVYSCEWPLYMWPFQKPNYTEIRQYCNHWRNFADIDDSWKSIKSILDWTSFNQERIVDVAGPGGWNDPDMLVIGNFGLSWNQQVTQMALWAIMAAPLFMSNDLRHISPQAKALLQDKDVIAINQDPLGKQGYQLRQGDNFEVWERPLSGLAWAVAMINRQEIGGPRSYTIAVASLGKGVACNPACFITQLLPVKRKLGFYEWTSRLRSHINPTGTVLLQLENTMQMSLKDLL
miR-21 FLuc: qHTS Assay for Modulators of miRNAs and/orActivators of miR-21; Potency, µM (doses to about 38.3 µM), without a hit: at the highest dose reporter change, positive = more light; HeLa miR-21 FLuc reporter, luciferase, 48 h; 340,000 tested, under 10 active; active = well fitted rising curve with a large enough effect; inconclusive = small, poorly fitted or top-dose-only effect; inactive = no such curve, though single readings can be large or run the other way;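 further: % of control where 0% means no effect; miR-21 action dims this reporter so a rising signal means less miR-21 action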
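HeLa miR-21-FLuc reporter line, endogenous miR-21; 2000 cells/well in DMEM/10% FBS; compound titration up to ~40uM final, 48 h, 37 degree Celsius; luciferase detection reagent, 15 min lysis, CCD luminescence.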
Rango release inh: qHTS Assay for Inhibitors of RanGTP induced Rango (Ran-regulated importin-beta cargo) - Importin beta complex dissociation | Snurportin-1 (Homo sapiens) + GTP-binding nuclear protein Ran (Homo sapiens) + Importin … | Biochemical FRET Rango-importin beta, RanGTP-induced dissociation | Potency, µM (series often up to 46.1 µM), inactives show at the highest dose activity change, negative = inhibition | 0.071% of 340,000 active | AID 540253, 2011; active means falling FRET ratio curve, often poorly fitted, with flat reads before Ran was added; inconclusive means other falling curves, or compound fluorescence or quenching; inactive means flat or rising ratio curve;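 further: potency means the concentration at half of the fitted maximal effect; % of control where 0% means no effect; nearly all actives have a fitted effect of over 45% in size; -100% = wells without RanGTP and RCC1; the record marks most hits as doubtful in a second field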
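Rango (0.1 uM)–importin beta (0.25 uM) complex; RanGTP-RCC1 trigger; 45 min RT; CFP/YFP FRET read.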
Rango complex inh: qHTS Assay for Inhibitors of Rango (Ran-regulated importin-beta cargo) - Importin beta complex formation; Rango CFP/YFP FRET sensor + importin beta, 45 min; Potency, µM (series often up to 92.2 µM), inactives show at the top dose inhibition of complex formation; 0.031% of 340,000 active; active = rising FRET ratio curve, often small or poorly fitted; inconclusive = mostly compound fluorescence or quenching in the first reads; inactive = flat curves in all reads;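 further: potency means the concentration at half of the fitted maximal effect; 0% = DMSO wells and 100% = buffer wells lacking importin beta; nearly all actives have a fitted effect of over 15% in size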
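FRET biosensor (snurportin 1 IBB flanked by EYFP and cerulean), 50 nM, with compound 5 min, then 0.125 microM importin beta in PBS, 1 mM DTT, 0.02% Tween-20, 0.1% BSA. CFP/YFP ratio read after 45 min at room temperature; pre-read flags interference.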
Active calls of the source: *; ? = inconclusive; / = no result given; & = joins results of further samples. A portion of the library; rates above refer to the full screens.

molecule | miR-21 FLuc | GLA inh pH 4.5 | Rango release inh | Rango complex inh
O=C(N[C@@H]1C/C=C\C[C@H](CC(=O)N(CCO)Cc2ccccc2)C(=O)NC[C@@H](c2ccccc2)OC1=O)OCC1c2ccccc2-c2ccccc21 | / | / | 10% | -0.5%
Cc1cc(NC(=O)c2ccc(S(=O)(=O)N3CCCC3)cc2)nc2c1c(=O)oc1ccccc12 | 0% | -7 | 17% | -0.4%
CCOC(=O)C1(CCCc2ccccc2)CCN(CCCn2cccn2)CC1 | 4% | -22 | ? | -0.4%
CCc1cc2cc(C(=O)N3CCN(Cc4ccccc4)CC3)sc2s1 | -19% | 6 | 11% | -1.9%
CCOc1ccc2c(c1)C(C)=CC(C)(C)N2S(=O)(=O)c1ccc(F)cc1 | 13% | / | -6% | 0.1%
O=C1CCC/C1=C/Nc1ccc(Cl)cc1 | -24% | -5 | -14% | -3.4%
CN1CCN(NC(=O)CN2C(=O)/C(=C/c3ccccc3Cl)SC2=S)CC1 | -10% | 6 | -17% | 1.0%
O=C(NCc1ccco1)Nc1cccc(-c2ccccc2)c1 | / | / | 19% | -6.1%
Cc1cccc(CSC2=NCCN2C(=O)c2ccco2)c1 | -11% | 4 | 5% | -1.0%
Cc1ccc(NCc2nnc(SCC#N)o2)c(C)c1 | -14% | -8 | 14% | ?
COc1ccc(OC)c(NC(=O)CN2C(=O)NC3(CCCc4ccccc43)C2=O)c1 (stereo not drawn) | / | / | 1% | -2.5%
C[C@@H]1CN(S(=O)(=O)C(C)(C)C)[C@H](CCO)/C1=C\c1ccccc1 | / | / | -23% | -2.3%
CCC(CC)C(=O)Nc1nnc(S(=O)(=O)N2CCCCCC2)s1 | 4%&-45% | / | 4% | 0.1%
Cc1ccc(CSCC(=O)NCc2cccs2)cc1 | -17% | 16 | -11% | -1.3%
N#C/C(=C\c1ccc2c(c1)OCCO2)C(=O)NC1CCCCC1 | -6% | 6 | 4% | ?
CCOc1ccc(S(=O)(=O)N2CCC(C(=O)OC(C)C(=O)N(C)C3CCCCC3)CC2)cc1 (stereo not drawn) | 4% | / | -16% | 2.8%
CC(C)CNC(=S)N(CCCO)Cc1cc2cc3c(cc2[nH]c1=O)OCCO3 | -10% | / | 0% | 3.7%
COC(=O)c1c(C)oc2ccc(N(C(C)=O)S(=O)(=O)c3ccccc3)cc12 | 7% | / | 4% | -0.3%
O=C(CSc1nncn1-c1ccccc1)Nc1ccc(F)cc1F | 7% | / | 7% | ?
COc1ccc(OC)c(S(=O)(=O)Nc2ccc3c(c2)C(=O)OC3)c1 | 2% | -4 | -5% | -2.6%
CCOC(=O)CN1NC2(CCCCCC2)NC1=S | 0% | 5 | -22% | ?
COc1ccc(N(Cc2ccco2)C(=O)c2ccccc2F)cc1OC | -1% | 3 | -6% | 0.0%
COc1cccc(CNC(=O)C2CCN(S(=O)(=O)N3CCC(C)CC3)CC2)c1 | 2%&8% | / | -2% | -3.4%
Cc1nc(SCC(=O)O)c(C#N)c(-c2ccco2)c1C(=O)N(C)C | -2% | -2 | 7% | -2.1%
CC1(c2ccccc2)NC(=O)N(CC(=O)NCC2CCCO2)C1=O (stereo not drawn) | / | / | -1% | 0.0%
Cc1ccc(C(=O)NCc2occc2C(=O)O)o1 | -3% | 1 | -1% | -1.0%
O=C(N/N=C/c1coc2ccccc2c1=O)c1ccncc1 | 4% | / | -2% | 0.6%
O=C(CC1S/C(=N/N=C/C=C/c2ccccc2)NC1=O)Nc1ccc(Cl)c(Cl)c1 (stereo not drawn) | -15% | 1 | 11% | -1.0%
COc1ccc(CSC(=N)N)cc1[N+](=O)[O-] | 18% | -1 | 1% | 0.7%
CCOc1ccc(NC(N)=O)cc1 | -4% | 3 | -17% | 1.4%
CCOC(=O)c1c(CC(C)C)csc1/N=C/C1C(=O)CC(C)(C)CC1=O | -4% | -21 | ? | ?
Cc1cccnc1Nc1nc(-c2ccc(O)cc2)cs1 | -78% | 6 | -4% | 6.7%
COc1ccc(/C=C2/N=C(SC3CCOC3=O)N(c3cccc(OC)c3)C2=O)cc1 (stereo not drawn) | -11% | 3 | ? | ?
Cc1ccccc1-c1nc2cc(Cl)ccc2o1 | -39% | 5 | 1% | 3.5%
CSc1nc(=S)n(-c2ccccc2)c(C)c1C(C)=O | -3% | / | -1% | 4.4%
Cc1cccc(OCC(=O)O/N=C(\N)c2ccccn2)c1 | -64% | -1 | 17% | 3.9%
C/C(=N\NC(=O)c1ccccc1-n1cccc1)C1CC1 | -3% | 3 | -10% | 2.8%
O=C(CSc1nnnn1C1CCCCC1)NCc1ccco1 | -3% | -5 | -1% | 5.5%
CCN(c1cccc(C)c1)S(=O)(=O)c1ccc(OC)c([N+](=O)[O-])c1 | -6% | -1 | -20% | -0.1%
CNC(=S)N(Cc1cccs1)Cc1cc2cc(OC)ccc2[nH]c1=O | -3% | 6 | -3% | 3.4%
COc1ccc(C(=O)NCC(=O)OCC(=O)N2N=C(c3ccc(Cl)cc3)CC2c2ccco2)cc1OC (stereo not drawn) | -7% | -3 | 10% | 0.5%
O=C(CSc1nnc(CNC(=O)c2ccccc2F)o1)NCCc1ccccc1 | 3% | 6 | -8% | 0.1%
COc1cc(OC)cc(C(=O)N[C@H](C(=O)Nc2ccc(F)cc2F)C(C)C)c1 | -5% | / | -2% | 0.7%
Cc1ccn2c(=O)cc(C)nc2c1 | 0% | 3 | -14% | 3.1%
Cc1cc(/C=C(\C#N)C(=O)O)c(C)n1CCC(C)C | -25% | -3 | 15% | -0.1%
CC(=O)Nc1cccc(NC(C)=C(C#N)C#N)c1 | -4% | 1 | -5% | 7.2%
O=S(=O)(c1ccccc1)N1C2CCC1CC(O)(c1cccnc1)C2 (stereo not drawn) | -5% | -7 | 4% | -1.0%
O=C(COC(=O)c1ccc2ccccc2n1)NCc1ccccc1 | -1% | 7 | -1% | 0.0%
O=C(NCC(=O)N(Cc1ccccc1)C(C(=O)NC1CCCC1)c1cccnc1)c1ccco1 (stereo not drawn) | -3% | 0 | -10% | 2.9%
O=C1NC(=S)NC1=Cc1ccccc1O | / | / | ? | ?
O=C(NCCN1CCCC1)c1ccc(CS(=O)(=O)c2c(Cl)cccc2Cl)o1 | 0% | -8 | -19% | -3.8%
Cc1cccc(N=Nc2c(C)c(C#N)c(O)[nH]c2=O)c1 | -11% | -27 | -15% | -2.2%
Cc1ccc(CCNC(=O)C2CC(c3ccc(C(F)(F)F)cc3)=NO2)cc1 (stereo not drawn) | -4% | 0 | -2% | 5.1%
N/C(=N\OC(=O)c1ccc(Br)cc1)c1ccncc1 | -39% | -5 | 13% | -2.9%
O=c1[nH]cc(S(=O)(=O)N2CCOCC2)c(=O)[nH]1 | / | / | -2% | -0.6%
CCCn1nnnc1NCc1c(F)cccc1Cl | -3% | -6 | 8% | 1.3%
Cc1ccc(S(=O)(=O)N2CCOCC2)cc1NC(=O)COC(=O)c1ccc(Br)o1 | / | / | 2% | -0.7%
COCc1nnc(NC(=O)C(C)C)s1 | -3% | -6 | 2% | 3.1%
CCN(CC)Cc1c(C(=O)OC)nnn1-c1nonc1N | -5% | -6 | -22% | -3.8%
Cc1ccc(C(=O)NC2CC(C)(C)NC(C)(C)C2)cc1 | -5% | / | 27% | 7.1%

Of the compounds above, 2 have a nitro group on carbon:
molecule | miR-21 FLuc | GLA inh pH 4.5 | Rango release inh | Rango complex inh
COc1ccc(CSC(=N)N)cc1[N+](=O)[O-] | 18% | -1 | 1% | 0.7%
CCN(c1cccc(C)c1)S(=O)(=O)c1ccc(OC)c([N+](=O)[O-])c1 | -6% | -1 | -20% | -0.1%

Single records (already shown). Order of screens: miR-21 FLuc	GLA inh pH 4.5	Rango release inh	Rango complex inh
Record of `CCOC(=O)CN1NC2(CCCCCC2)NC1=S` → 0%	5	-22%	?
Record of `Cc1cccc(N=Nc2c(C)c(C#N)c(O)[nH]c2=O)c1` → -11%	-27	-15%	-2.2%

Next structures.
molecule | miR-21 FLuc | GLA inh pH 4.5 | Rango release inh | Rango complex inh
Cc1c(C(=O)N/N=C/c2ccncc2)no[n+]1[O-] | 0% | 1 | 6% | 0.5%
Cc1cc(C)n2cc(CSc3nnc(-c4ccccc4)o3)nc2n1 | -8% | -3 | -7% | 5.6%
O=C(Cn1ncc2c(=O)oc3ccccc3c21)N1CCCN(Cc2ccccc2F)C1 | -8% | 9 | -2% | -0.8%
O=C(NCc1ccccc1)c1cccc(S(=O)(=O)N2CCOCC2)c1 | -2% | -16 | -3% | -3.1%
O=C(COC(=O)C1CC1)Nc1c(Cl)cccc1C(F)(F)F | / | / | -8% | 1.0%
COc1ccc2[nH]c(C)c(-c3csc(N)n3)c2c1 | 3% | / | 1% | -1.2%
CCC(c1nnnn1C(C)(C)CC)N(CCCO)Cc1cc2cc(C)cc(C)c2[nH]c1=O (stereo not drawn) | -18% | 1 | -9% | 2.4%
O=C(NCC(=O)N1CCC2(CC1)NCCc1[nH]cnc12)c1cccc(Cl)c1 | -4% | / | -28% | 1.4%
COc1cccc(C(=O)Nc2ccc(S(=O)(=O)Nc3cc(C)nc(C)n3)cc2)c1 | -9% | -29 | -17% | 0.4%
CN(C)c1ccc(/C=C/c2cccc[n+]2[O-])cc1 | -53% | -5 | ? | ?
Cc1cccc(S(=O)(=O)NCCc2ccccc2)c1 | 1% | 1 | -1% | 0.4%
CC(=O)Nc1ccc(NC(=O)CSc2ccc3nnc(CCNC(=O)c4ccccc4)n3n2)cc1 | 0% | 1 | -21% | 0.2%
CCCCNC(=O)CSc1nc2ccccc2n1S(=O)(=O)c1ccc(Br)cc1 | -19% | 4 | 4% | -0.3%
COCCNC(=O)C1CCC(CNS(=O)(=O)c2ccc3c(c2)CC(C)N3C(=O)C2CC2)CC1 (stereo not drawn) | -10% | / | 12% | 0.3%
CC(=O)c1ccc([N+](=O)[O-])cc1 | / | / | 4% | 2.6%
CC(=O)c1cc(F)c(N2CCN(C(=O)Cc3ccccc3)CC2)cc1C | 14% | 6 | 7% | -6.9%
C=C(C)Cc1c(C)c(C#N)c2nc3ccccc3n2c1NCCCN(C)C | -13% | 5 | ? | ?
Cc1ccc(NC(=O)CCNC(=O)c2ccc([N+](=O)[O-])cc2)cc1C | -12% | / | 6% | -0.8%
O=C(Nc1ccc(C(=O)N2CCOCC2)cc1)c1cc(-c2cccnc2)nc2ccc(Br)cc12 | -8% | -27 | -2% | -1.4%
O=C(CSc1nccc(-c2cccs2)n1)Nc1cccc(Cl)c1 | -2% | -7 | 7% | 3.7%
CN(C(=O)COC(=O)c1cc(-c2ccco2)nc2ccccc12)C1CCS(=O)(=O)C1 (stereo not drawn) | -4% | -2 | -24% | ?
CC(C)(C)NC(=O)C(c1ccc(F)cc1)N(Cc1ccccc1Cl)C(=O)c1ccn[nH]1 (stereo not drawn) | -1% | -4 | 8% | 0.0%
COc1ccc(OC)c(/C=N/NC(=O)c2ccc(N(C)S(=O)(=O)c3ccccc3)cc2)c1 | 0% | -8 | -8% | 1.4%
CCCN=C1CC(C)(C)CC(=O)/C1=C(/O)CCC | -1% | -2 | 11% | -0.1%
Cc1cc(C(=O)CSc2nc(N)cc(N)n2)c(C)n1C1CC1 | -16% | 4 | 2% | -0.8%
CC(Oc1cc2oc(=O)c3c(c2cc1Cl)CCC3)C(=O)NCCCN1CCOCC1 (stereo not drawn) | 0% | / | 20% | 2.5%
CN(C)c1oc(-c2ccccc2)nc1C#N | -17% | 6 | 2% | 2.0%

4 entries picked at random from the list so far, as already listed:
molecule | miR-21 FLuc | GLA inh pH 4.5 | Rango release inh | Rango complex inh
COCCNC(=O)C1CCC(CNS(=O)(=O)c2ccc3c(c2)CC(C)N3C(=O)C2CC2)CC1 (stereo not drawn) | -10% | / | 12% | 0.3%
Cc1cc(C(=O)CSc2nc(N)cc(N)n2)c(C)n1C1CC1 | -16% | 4 | 2% | -0.8%
CN(C)c1ccc(/C=C/c2cccc[n+]2[O-])cc1 | -53% | -5 | ? | ?
COc1ccc2[nH]c(C)c(-c3csc(N)n3)c2c1 | 3% | / | 1% | -1.2%
